# Compound activity from PubChem BioAssay.
# quorum sensing = Vibrio cholerae quorum sensing activators, luminescence (AID 686977) | V. cholerae quorum sensing reporter, luminescence, 6 h; higher luminescence means a stronger effect; most inactives read 0 | luminescence at 50 µM unless noted, or EC50 in µM where a hit was titrated | 9,400 tested, under 10 active;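 active = light above mean plus 3 SD and confirmed in a dose series; inconclusive = above that limit without a clear retest; inactive = below it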;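 also: raw light counts without normalisation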
# Active calls of the source: *; u = inconclusive; [ ] = remark or other dose.
> O=C(NCCC1=CCCCC1)C1CCCN(S(=O)(=O)c2cccnc2)C1 (stereo not drawn)
  quorum sensing = 0

> Cc1nnc(SCC(C)C)[nH]c1=O
  quorum sensing = 40

> COc1ccc2[nH]c(C)c(CCN(Cc3cccs3)C(=S)Nc3cccc(F)c3)c2c1
  quorum sensing = 40

> CCC(C)[C@@H](C(=O)Nc1ccc(OC)c(OC)c1)N1Cc2ccccc2C1=O (stereo partly drawn)
  quorum sensing = 0

> CCS(=O)(=O)Nc1cc(-c2nc3cccnc3s2)ccc1C
  quorum sensing = 0

> CCCN1Cc2cccc(C(=O)N3CCN(c4cc(Cl)ccc4C)CC3)c2C1=O
  quorum sensing = 40

> COc1ccc(O)c(C(=O)c2cnn(C(=O)c3cc(C)oc3C)c2)c1
  quorum sensing = 40

> C=CC1=C(C(=O)O)N2C(=O)[C@@H](NC(=O)/C(=N\OCC(=O)O)c3csc(N)n3)[C@H]2SC1
  quorum sensing = 0[10 µg/mL]

> Cc1ccc(-c2nnc(N(C)C(=O)c3cccnc3)s2)cn1
  quorum sensing = 40

> Cn1cc(S(=O)(=O)Nc2ccc(Br)cc2F)c(=O)n(C)c1=O
  quorum sensing = 0

> O=C(Nc1cccc(F)c1)c1cccnc1N1CCOCC1
  quorum sensing = 80

> COc1ccc(C)cc1S(=O)(=O)Nc1ccccc1
  quorum sensing = 40

> CCN(CC)C(C)CN1c2ccccc2Sc2ccccc21 (stereo not drawn)
  quorum sensing = 240[10 µg/mL]

> CCOC(=O)c1c(C)[nH]c(C(=O)COC(=O)c2ccncc2)c1C
  quorum sensing = 0

> O=C1c2ccccc2C(Nc2ccc(F)c(Cl)c2)N1c1ccccn1 (stereo not drawn)
  quorum sensing = 0

> O=C(CC1Oc2ccccc2NC1=O)NCc1ccc(Cl)cc1 (stereo not drawn)
  quorum sensing = 0

> O=C(Cn1cnc2sc(-c3ccccc3)cc2c1=O)NCc1ccco1
  quorum sensing = 0

> COc1ccc(Cc2nccc3cc(OC)c(OC)cc23)cc1OC
  quorum sensing = 0[10 µg/mL]

> Cc1c(NS(=O)(=O)c2cccc(C(=O)NCc3ccncc3)c2)c(=O)n(-c2ccccc2)n1C
  quorum sensing = 0

> Cc1cn(C(=O)C(C)N2C(=O)c3ccccc3C2=O)c(C)n1 (stereo not drawn)
  quorum sensing = u

# 3 entries from above, as comma-separated lines:
SMILES,quorum sensing
Cc1c(NS(=O)(=O)c2cccc(C(=O)NCc3ccncc3)c2)c(=O)n(-c2ccccc2)n1C,0
C=CC1=C(C(=O)O)N2C(=O)[C@@H](NC(=O)/C(=N\OCC(=O)O)c3csc(N)n3)[C@H]2SC1,0[10 µg/mL]
O=C(CC1Oc2ccccc2NC1=O)NCc1ccc(Cl)cc1 (stereo not drawn),0

# (cont.)
> COc1ccc(NC(=O)C2CCN(S(=O)(=O)c3ccc(OC)c(OC)c3)CC2)cc1
  quorum sensing = 40

> Cc1cc(C)n(-c2ccc(C(=O)Nc3nnc(C)s3)cc2)n1
  quorum sensing = 40

> Cn1c(-c2ccc3c(c2)OCO3)cc(=O)c2ccccc21
  quorum sensing = 0[10 µg/mL]

> O=C(Cc1ccc(-n2c(=O)c3sccc3n(Cc3ccc(F)cc3)c2=O)cc1)NCc1ccco1
  quorum sensing = 0

> CCOC(=O)N1CCC(Nc2c(N3CCN(c4cc(Cl)ccc4C)CC3)c(=O)c2=O)CC1
  quorum sensing = 0

> COc1ccc(NC(=O)CN(C)S(=O)(=O)c2cccs2)cc1
  quorum sensing = 0

> CN(C)CC(C)(C)CNS(=O)(=O)c1cccc(Cl)c1Cl
  quorum sensing = 0

# In the list so far, 5 have a Cl atom:
> CCCN1Cc2cccc(C(=O)N3CCN(c4cc(Cl)ccc4C)CC3)c2C1=O
  quorum sensing = 40

> O=C1c2ccccc2C(Nc2ccc(F)c(Cl)c2)N1c1ccccn1 (stereo not drawn)
  quorum sensing = 0

> O=C(CC1Oc2ccccc2NC1=O)NCc1ccc(Cl)cc1 (stereo not drawn)
  quorum sensing = 0

> CCOC(=O)N1CCC(Nc2c(N3CCN(c4cc(Cl)ccc4C)CC3)c(=O)c2=O)CC1
  quorum sensing = 0

> CN(C)CC(C)(C)CNS(=O)(=O)c1cccc(Cl)c1Cl
  quorum sensing = 0

# An excerpt; count on the stated rates, not on these rows.
